# Source: PubChem
# KCNQ2 enhance: potentiators of rat KCNQ2 potassium channel. Potassium voltage-gated channel subfamily KQT member 2 (Rattus norvegicus), O88943. CHO-K1 KCNQ2, FluxOR thallium flux fluorescence; stronger effect = higher value. B-score at 10 µM. 0.54% of 310,000 active;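 active = fluorescence ratio B-score at least 3 SD of library B-scores, with initial fluorescence B-score within 3 SD, cut at about 5.3 in these data; same plate scores as AID 2156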;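 note: B-score of peak minus minimum over baseline fluorescence ratio after K+ and Tl+ stimulus; positive B-score means potentiation of KCNQ2 with more thallium influx and brighter signal; only the inactives scoring about 0 or higher are listed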
# Target sequence (O88943 whole entry, looked up): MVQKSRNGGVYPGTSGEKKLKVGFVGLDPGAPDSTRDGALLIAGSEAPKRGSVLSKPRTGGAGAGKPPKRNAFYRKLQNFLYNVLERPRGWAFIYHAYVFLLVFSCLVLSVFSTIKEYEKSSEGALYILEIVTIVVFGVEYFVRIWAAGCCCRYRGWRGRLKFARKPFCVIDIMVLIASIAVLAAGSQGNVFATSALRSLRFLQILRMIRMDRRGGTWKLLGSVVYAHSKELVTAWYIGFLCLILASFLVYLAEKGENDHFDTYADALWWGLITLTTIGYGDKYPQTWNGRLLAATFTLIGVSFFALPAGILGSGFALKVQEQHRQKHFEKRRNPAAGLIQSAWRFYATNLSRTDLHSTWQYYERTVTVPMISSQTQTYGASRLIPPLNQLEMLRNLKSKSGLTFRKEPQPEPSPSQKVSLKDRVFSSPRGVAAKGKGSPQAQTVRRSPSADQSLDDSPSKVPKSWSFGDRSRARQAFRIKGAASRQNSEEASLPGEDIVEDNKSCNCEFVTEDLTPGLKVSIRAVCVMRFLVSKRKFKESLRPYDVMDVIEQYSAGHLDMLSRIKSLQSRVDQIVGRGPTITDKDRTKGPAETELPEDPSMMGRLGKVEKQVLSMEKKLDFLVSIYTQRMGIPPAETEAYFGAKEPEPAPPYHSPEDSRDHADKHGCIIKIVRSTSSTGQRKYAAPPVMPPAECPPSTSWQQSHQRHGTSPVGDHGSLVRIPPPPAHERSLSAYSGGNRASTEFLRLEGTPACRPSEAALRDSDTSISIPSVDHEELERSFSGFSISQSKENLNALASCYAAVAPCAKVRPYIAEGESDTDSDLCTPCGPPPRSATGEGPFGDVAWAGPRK
# KCNQ2 enhance baseline: further read-out of KCNQ2 enhance, marked with its call; B-score; compound at 10 µM; measured here: initial fluorescence intensity artifact check;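 brightness before thallium and not channel activity; 0 = typical well and far values either way flag optical interference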
# * = called active by the depositor. Some of the compounds tested; count on the stated rates, not on these rows.
KCNQ2 enhance	KCNQ2 enhance baseline	Molecule
1.2	-0.36	CCOc1ccc(CNC(=O)Cn2ccc3cc(S(=O)(=O)N4CCCC4)ccc32)cc1
0.95	0.05	COc1cc2[nH]c3c(Cl)ncnc3c2cc1OC
0.1	-0.08	CN(C)c1ccc(N2C(=O)CC(Nc3ccc(N4CCOCC4)cc3)C2=O)cc1 (centres undefined)
0.08	1.5	COC(=O)COc1ccc(C(C2C(=O)CC(C)(C)CC2=O)C2C(=O)CC(C)(C)CC2=O)cc1
0.3	0.02	O=C(CC1Sc2ccccc2NC1=O)NCc1cccc(Cl)c1 (centres undefined)
0.02	0	CC(=O)OCC1=C(C(=O)O)N2C(=O)C(NC(=O)C(C)Cn3cc(Cl)cn3)C2SC1 (centres undefined)
0.75	-3.1	Cc1cc(C)nc(NS(=O)(=O)c2ccc(N=NN(C)C)cc2)n1
1.3	0.02	Cc1cc2ncn(/N=C/c3ccc([N+](=O)[O-])o3)c2cc1C
0.91	0.86	O=C(C(=O)N1CCN(c2ccc(F)cc2)CC1)N1CCCCC1
1.7	0.95	Cc1ccccc1OCC(=O)NCCCNC(=O)c1ccccn1
0.32	1.1	O=C(N/N=C1/CCS(=O)(=O)c2ccc(F)cc21)c1cccnc1
0.37	0.13	COc1ccccc1NCc1nnc(SCC(=O)N/N=C/c2ccco2)n1-c1ccc(Cl)cc1Cl
0.79	-2.5	O=C(Nc1ccc(F)cc1)Nc1ccccc1NS(=O)(=O)c1cccs1
1.4	0	COC(=O)[C@@]12CCCN1[C@H](c1ccc(-c3ccc(F)cc3)cc1)[C@H]1C(=O)N(C)C(=O)[C@H]12
0.68	-0.33	NC(=O)CC(NC(=O)Cc1cccc2ccccc12)c1ccc(NCc2ccc(F)c(F)c2)c([N+](=O)[O-])c1 (centres undefined)
3.7	-0.23	CC(C1CC1)N(Cc1ccccc1)C(=S)Nc1ccccc1 (centres undefined)
1.1	1.8	NC(=O)CC(NC(=O)Cc1cccc2ccccc12)c1ccc(N2CCc3ccccc3C2)c([N+](=O)[O-])c1 (centres undefined)
0.08	-0.21	Cc1ccccc1NC(=S)NCCO
0.45	-0.34	CC(OC(=O)/C=C/c1ccco1)C(=O)Nc1cccc([N+](=O)[O-])c1 (centres undefined)
0.55	-0.68	CCSc1nnc2ccc(-c3ccc(OC)c(OC)c3)nn12
0.01	0.09	COc1ccc2c(CC(=O)OCC(=O)Nc3sc4c(c3C#N)CCC(C)C4)coc2c1 (centres undefined)
0.5	-0.93	COc1ccc(NC(=O)c2ccc(S(=O)(=O)N(C)C)cc2)cc1OC
0.05	-0.48	Cc1ccc(C(=O)Nc2ccccc2OC(F)F)cc1
1.6	1.2	CC1CCCCC1NC(=O)CN1CCC(NC(=O)c2ccc([N+](=O)[O-])cc2)CC1 (centres undefined)
0.16	-0.74	O=C(CN1CCCCC1)N/N=C/c1cccc(C(F)(F)F)c1
0.74	0.53	COc1ccc(Cn2c(CCC(=O)Nc3ccc(CC#N)cc3)nc3cccnc32)cc1
1.2	-0.68	O=C(c1cccc2nccnc12)N1CCCC(Nc2ccc(F)c(F)c2)C1 (centres undefined)
1.6	1.7	C=CCSc1nn2c(=O)c3ccccc3nc2s1
0.04	-0.64	CCOC(=O)c1sc(NC(=O)c2cc3c(s2)CCC(C)C3)nc1C (centres undefined)
0.6	-1.9	COc1nc(OC)nc(N2CCC(C(=O)NC3CC3)CC2)n1
0.06	1.5	CC(=O)NC(=S)NNC(=O)COc1ccc([N+](=O)[O-])cc1
1.6	0	COc1ccc2c(c1)c(C(=O)N/N=C/c1cccs1)c(C)n2C
1.4	0.82	COc1ccc(OC)c(CN2CCSCC2)c1
0.21	1.8	C=CCN1C(=O)C(CC(=O)Nc2ccc(C)cc2)SC1=Nc1c(C)n(C)n(-c2ccccc2)c1=O (centres undefined)
1.1	-0.88	COC(=O)c1sccc1NC(=O)c1cnc2cc(C)nn2c1C
0.06	-2.1	CCOc1cccc(C=Nc2cc(C)cc(C)c2O)c1O
0.17	-1.3	COc1ccc2cc(/C(C)=N/NC(=O)C3CC3)ccc2c1
0.27	-1.7	CN(C)S(=O)(=O)c1ccc(C(=O)Nc2cccc(C(=O)O)c2)cc1
0.67	0.75	O=C(CSc1nc2c(c(=O)[nH]1)CCC2)Nc1ccccc1Cl
6.1*	-1.9*	CC(C)Cc1csc(NC(=O)c2ccc(Br)cc2)c1C(=O)O
1.9	-0.22	COc1cc(Br)cc(-c2nc3c(c(=O)[nH]c(=O)n3Cc3ccccc3)n2C)c1O
2	-1.4	CC(C)(C)C(=O)Nc1ccc(C(=O)Nc2cccc(Oc3ccc(C(=O)O)c(C(=O)O)c3)c2)cc1
0.86	-0.28	COc1ccc(OC(C)c2ccc(C#N)c(=O)[nH]2)cc1 (centres undefined)
0.7	0.89	COc1ccc(OC)c(NC(=O)COC(=O)Cc2ccc(Br)cc2)c1
0.33	-1.4	COC(=O)c1cccc(NC(=O)CSc2nc(O)c(-c3ccccc3)c(=O)[nH]2)c1
0.02	0	Cc1ccc(SC[C@H](Cc2ccccc2)N2CCN(C)CCC2=O)cc1
0.98	-1.3	Cc1ccc(-c2nnn(CC(=O)N(c3ccccc3F)C(C(=O)NCC3CCCO3)c3c[nH]c4ccccc34)n2)cc1 (centres undefined)
0.34	-0.34	O=C(CCNC(=O)c1ccc([N+](=O)[O-])cc1)Nc1nccs1
0.01	-2.2	Cc1ccccc1NC(=O)COc1coc(CN2CCN(c3ccccc3)CC2)cc1=O
1.7	0.37	Cc1ccc(-c2ccc(/C=N\NC(=O)C3C(=O)NCC3c3ccccc3)o2)cc1Cl (centres undefined)

# Next part
KCNQ2 enhance	KCNQ2 enhance baseline	Molecule
0.67	-2.3	Cc1ccc(O)c(-c2cc(-c3cccc(Br)c3)n[nH]2)c1
1.1	-0.32	Cc1ccc(-c2n[nH]c(=S)n2C)cc1
0.47	0.89	COc1cc2nc(CN3CCN(C(c4ccccc4)c4ccccc4)CC3)[nH]c(=O)c2cc1OC
0.02	-1.6	O=C(CSc1nnc(CNC(=O)c2ccc(F)cc2)o1)Nc1ccc2c(c1)OCCO2
0.03	-0.82	CC(=O)Nc1ccc(-c2csc(NC=C3C(=O)OC(C)(C)OC3=O)n2)cc1
0.9	-2	O=C(CNC(=O)c1ccc(-c2ccccc2)cc1)OCc1c(F)cccc1Cl
6.6*	0.26*	N#C/C(=N\Nc1ccc(Cl)c(Cl)c1)C(=O)C1CC1
0.3	-1.8	Cc1cccc(NS(=O)(=O)c2cccc(C(=O)N3CCN(c4ccccn4)CC3)c2)c1
1.4	-0.48	COc1ccc(COC(=O)CN2C(=O)NC3(CCCC3)C2=O)cc1F
0.55	0.45	COc1ccc(CNC(=O)c2cc(-c3ccncc3)nc3c(C)cc(C)cc23)cc1OC
1.1	1.1	Clc1cccc(Cl)c1CSc1nnc(-c2ccncc2)s1
0.87	0.04	Cn1cccc1C(=O)NCc1ccc(S(N)(=O)=O)cc1
0.36	1.2	O=C(COC(=O)COc1cccc(C(F)(F)F)c1)NC(=O)NC1CCCCC1
2.3	0.66	CCn1cc(/C=C(\NC(=O)c2ccc(C)cc2)C(=O)NCCCN2CCOCC2)c2ccccc21
1.1	0.55	O=C(O)c1cc(Cl)c(Cl)cc1C(=O)Nc1cccc2ncccc12
0.88	-2	CCNC(=O)NC(=O)C(C)OC(=O)c1oc2ccc(OC)cc2c1C (centres undefined)
0.07	0.03	CC(=O)N1[C@H](Cc2ccccc2)C=C[C@]1(C)C(=O)NCCc1c[nH]c2ccccc12
1.4	-0.04	O=C(Nc1nncs1)C1CCCC1
1.6	0.43	CC1(C(=O)O)C=CCN1C(=O)c1ccccc1 (centres undefined)
0.14	-2	O=C(NCc1ccco1)c1cc(-c2ccccc2)on1

# Overlap with the part before: 3 entries, then new ones.
KCNQ2 enhance	KCNQ2 enhance baseline	Molecule
1.4	-0.04	O=C(Nc1nncs1)C1CCCC1
1.6	0.43	CC1(C(=O)O)C=CCN1C(=O)c1ccccc1 (centres undefined)
0.14	-2	O=C(NCc1ccco1)c1cc(-c2ccccc2)on1
0.22	3	COc1ccc(C(=O)CSc2nnc(C3CC3)n2N)cc1
0.67	1.5	O=[N+]([O-])c1cccc(-c2nnc3n2CCCCC3)c1
0.4	-1.8	C=CCn1c(C)nnc1SCC(=O)Nc1nccs1
0.45	-2	Cc1cc(OC(=O)CNC(=O)OC(C)(C)C)c2c(C)cc(=O)oc2c1
0.4	-1.4	O=C(CCCN1C(=O)/C(=C/c2cccs2)SC1=S)Nc1ccc(O)cc1
0.24	0.77	Cc1ccc(C(c2sc3nc(C)nn3c2O)N2CCOCC2)cc1 (centres undefined)
2.4	0.96	O=C(Nc1sc2c(c1C(=O)O)CCCCC2)c1ccccc1F
0.46	1.3	CCC(=O)NC(=S)Nc1ccc(S(=O)(=O)N2CCN(C)CC2)cc1
0.33	0.03	COc1ccc(Nc2nc(N)nc(CSCCO)n2)cc1
0.65	0.86	CC(C)CCNC(=O)CN(CCN1CCOCC1)C(=O)Cn1nnc(-c2ccc(F)cc2)n1
0.03	-0.8	Cc1ccc(C2CC(=O)NC(SCC(=O)Nc3nccs3)=C2C#N)cc1 (centres undefined)
2.5	-0.64	CC(C)c1ccc(/C=N/n2c(-c3ccccc3)n[nH]c2=S)cc1
0.06	-1.1	Cc1ccsc1-c1nc(C(N)=O)c2[nH]c(=O)n(-c3ccc(Cl)cc3)c2n1
0.16	2.3	O=C(Cn1cncn1)c1ccccc1Br
0.12	-0.74	Cc1nn(CC(=O)O)c(=O)c2ccccc12
0.41	-2.6	CCc1ccc(/C(C)=N\Nc2ccc([N+](=O)[O-])cc2)cc1
0.22	-0.06	Cc1cc(NC(=O)c2cc(-c3ccc4c(c3)OCO4)on2)n(-c2ccccc2)n1
13*	0.22*	Cc1sc2nc(-c3ccccn3)[nH]c(=O)c2c1-c1ccccc1
0.14	-1.5	O=C(NCCc1c[nH]c2ccccc12)c1cc([N+](=O)[O-])cc([N+](=O)[O-])c1
0.75	0.6	CC(C)c1ccc(C(CC(=O)c2ccc(Cl)cc2)C(=O)O)cc1 (centres undefined)
1.3	-0.38	Nc1nc(C2CCCN2S(=O)(=O)c2ccc(Cl)cc2)cs1 (centres undefined)
0.98	-0.58	Cc1ccccc1OCCn1c(S(=O)(=O)O)nc2c(N)ncnc21
2.9	-0.46	CC(=O)Oc1ccc(C(=O)Nc2ccc3c(c2)C(=O)N(CCC(=O)O)C3=O)cc1
1.1	-1.1	Cc1cccn2c(=O)c3cc(C#N)c(=N)n(Cc4ccncc4)c3nc12
0.37	0	CN(c1ccccc1)S(=O)(=O)c1cccc(C(=O)Nc2nccs2)c1
0.01	1.4	CCC(C)(C)NC(=O)C1CCN(c2nc(OC)nc(OC)n2)CC1
2.4	-0.6	O=C(Nc1cccc(C(=O)Nc2ccc(F)cc2F)c1)c1ccccc1
1.7	0.28	O=C(c1ccc(Cl)c(S(=O)(=O)N2CCOCC2)c1)N1CCN(Cc2ccccc2)CC1
0.49	-0.46	O=C(O)c1ccc(-n2c(O)c(C=C3N=c4ccccc4=N3)sc2=S)cc1
1.4	-0.09	COc1ccccc1Cc1noc(C(C)(C)NC(=O)c2ccccc2)n1
6.9*	-0.95*	Fc1cccc2sc(Nc3nc4cc5c(cc4s3)OCO5)nc12
2.1	-0.53	O=C(O)CC/C(=C\c1ccc(N2CCOCC2)c([N+](=O)[O-])c1)c1nc2ccccc2s1
1.7	-0.11	CC(C(=O)NC(C)(C)C)N(C(=O)CS(=O)CC(=O)Nc1ccc(F)cc1)C1CCCC1 (centres undefined)
7.3*	0.72*	COc1cccc(CNC(=O)C2CCN(S(=O)(=O)c3ccc(Br)s3)CC2)c1
0.92	-2.5	O=C1CC(N2CCN(c3ccc(Cl)cc3)CC2)C(=O)N1c1ccc(F)cc1 (centres undefined)
0.24	-1	O=C1C2C(C(=O)N1c1ccccc1)N1CCCN1C2c1ccccc1 (centres undefined)
0.69	-0.15	O=C(NCc1ccc2c(c1)OCO2)c1ccccc1Cl
0.43	0.15	OCCNCCCOc1ccc(Cl)cc1Br
0.53	0.22	CC(C)CCNC(=O)NC(=O)COc1c(F)c(F)cc(F)c1F
0.56	-0.78	CC(C)NC(=O)CSc1nnc(COc2ccccc2Cl)o1
0.63	-0.58	COc1ccccc1/C=C(/C#N)C(=O)O
0.26	0.2	CC(=NCC1CCNCC1)C1=C(O)CC(C)(C)CC1=O
0.89	0.34	Cc1nc2ccccc2cc1C(=O)N/N=C/c1cccs1
0.19	-0.64	CCN(CC)C(=O)COc1ccc2c3c(c(=O)oc2c1C)CCCC3
0.67	-0.1	Cc1ccc([N+](=O)[O-])c(C(=O)N/N=C/c2cccnc2)c1
0.13	0.5	COC(=O)[C@H]1C2CCC(C(=O)OC)(CC2)[C@H]1C(=O)OC
0.11	-1.2	O=C(Nc1ccccc1)NC1CS(=O)(=O)CC1O (centres undefined)

# Record cards, as listed above:
# CCSc1nnc2ccc(-c3ccc(OC)c(OC)c3)nn12 is entered as KCNQ2 enhance = 0.55; KCNQ2 enhance baseline = -0.68
# CCc1ccc(/C(C)=N\Nc2ccc([N+](=O)[O-])cc2)cc1 is entered as KCNQ2 enhance = 0.41; KCNQ2 enhance baseline = -2.6

# Ordered by the number under KCNQ2 enhance (largest number first): 5 of the compounds above
KCNQ2 enhance	KCNQ2 enhance baseline	Molecule
1.1	1.1	Clc1cccc(Cl)c1CSc1nnc(-c2ccncc2)s1
0.55	0.45	COc1ccc(CNC(=O)c2cc(-c3ccncc3)nc3c(C)cc(C)cc23)cc1OC
0.49	-0.46	O=C(O)c1ccc(-n2c(O)c(C=C3N=c4ccccc4=N3)sc2=S)cc1
0.19	-0.64	CCN(CC)C(=O)COc1ccc2c3c(c(=O)oc2c1C)CCCC3
0.06	1.5	CC(=O)NC(=S)NNC(=O)COc1ccc([N+](=O)[O-])cc1
